# Hedgehog inh = blocks Sonic Hedgehog signaling; Shh-LIGHT2 Gli-luciferase reporter, 30 h; inhibition, % (concentration not given with the values); hit rate 2.1% among 22,000; AID 2313;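 active means replicate mean of 65% or more; inconclusive means mean lower but half the replicates past it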;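 further: pathway switched on by Shh-conditioned medium diluted 1 in 25 in low serum; 100 nL library stock added to about 40 µL; 0% = median of neutral wells and 100% = positive control level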
# PD-1 reverse act = reversal of PD-1 mediated T-cell inhibition; AID 2316; activation, % (concentration not given with the values); primary human CD4 T cells, PD-L1 beads, CellTiter-Glo 96 h; 29,000 tested, under 10 active;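 active means replicate mean of 50% or more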;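 further: 0% = median vehicle wells and 100% = positive control; 100 nL library stock added to about 50 µL; numbers are from one replicate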
# YB-1 expr inh = YB-1 expression inhibition. U2OS, qRT-PCR YB-1 vs CDIP delta delta Cp, 16 h; stronger effect = higher value; zero = DMSO, each unit about twofold. delta delta Cp (YB-1 minus CDIP) (no concentration beside the values). hit rate 0.37% among 30,000. AID 434959;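 active means delta delta Cp rounded down to an integer at or above 3, about 3 SD of DMSO wells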;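 further: higher means less YB-1 transcript or more CDIP transcript relative to DMSO; stock transfer was 100 nL into about 100 µL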
# MITF inhib = MITF inhibition; TRPM1 promoter luciferase, luminescence, 24 h; inhibition, % (test concentration not listed); AID 2240; hit rate 0.28% among 37,000;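 active means most replicates at 85% or more, or half of them and the mean; inconclusive means half reach 85% but not the mean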;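 further: human melanocyte line stably carrying TRPM1 promoter luciferase reporter; 0% = vehicle wells and 100% = a positive control; the first replicate is given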
# * marks the source's active call; other numbers are inactive results; ? = inconclusive; . = not tested or not shown.
SMILES,Hedgehog inh,PD-1 reverse act,YB-1 expr inh,MITF inhib
Cc1ccccc1NC(=O)CSc1nnc(C23CC4CC(CC(C4)C2)C3)o1,.,-1.8,.,-4
C[C@@H]1CCCCO[C@H](CN(C)Cc2ccc3c(c2)OCO3)[C@@H](C)CN([C@H](C)CO)C(=O)c2cc(NC(=O)Nc3ccc4c(c3)OCO4)ccc2O1,.,.,0.24,-4
CNC[C@@H]1Oc2c(NC(=O)c3ccc(-c4nccs4)cc3)cccc2C(=O)N([C@H](C)CO)C[C@@H]1C,-38,0.0,0.64,2
C[C@@H]1CCCCO[C@@H](CN(C)C(=O)Nc2ccc(C(F)(F)F)cc2)[C@@H](C)CN([C@H](C)CO)C(=O)c2cc(NC(=O)Nc3ccccc3)ccc2O1,-7,.,0.1,-1
C[C@H](CO)N1C[C@H](C)[C@H](CN(C)Cc2ccc(C(=O)O)cc2)Oc2ccc(NC(=O)Cn3cnnn3)cc2CC1=O,?,0.8,0.071,-3
CC(C)NC(=O)N(C)C[C@@H]1Oc2ccc(NC(=O)Nc3ccc(C(F)(F)F)cc3)cc2CC(=O)N([C@H](C)CO)C[C@@H]1C,23,.,-0.3,-12
CC1CC[C@]2(C(=O)O)CC[C@]3(C(=O)O)C(=CCC4[C@@]5(C)CC[C@H](OC6OC(C)C(O)C(OC7OC(CO)C(O)C(O)C7O)C6O)C(C)(C)C5CC[C@]43C)C2C1C (some centres undefined),9,2.0,-0.24,6
Cc1sc(NC(=O)c2ccccc2)c(C(=O)NCc2cccnc2)c1C,.,-0.4,.,-29
C[C@H](CO)N1C[C@H](C)[C@@H](CN(C)Cc2ccccc2)Oc2ccc(NC(=O)CCCN(C)C)cc2C1=O,-1,1.0,-0.079,2
C[C@H](CO)N1C[C@H](C)[C@H](CN(C)C(=O)Nc2cccc3ccccc23)Oc2ccc(NC(=O)NC3CCCCC3)cc2CC1=O,-14,-1.1,-0.048,-4
CNC[C@@H]1Oc2ccc(NC(=O)Cc3ccccc3)cc2CC(=O)N([C@@H](C)CO)C[C@@H]1C,-15,-2.9,-0.65,-3
COc1ccc(Cl)cc1C(=O)NCCc1ccc(S(=O)(=O)NC(=O)NC2CCCCC2)cc1,-5,-0.9,-0.095,-5
Cc1noc(C)c1NC(=O)Nc1ccc2c(c1)CC(=O)N([C@@H](C)CO)C[C@H](C)[C@@H](CN(C)CC1CC1)O2,-23,.,-0.58,-8
C[C@H]1O[C@@H](O[C@H]2C[C@H]3C(=O)C[C@]4(C)C(=CCC5[C@@]6(C)CC[C@H](O[C@@H]7OC[C@@H](O)[C@H](O)[C@H]7O)[C@@](C)(C=O)C6CC[C@]54C)[C@@H]3CC2(C)C)[C@H](O)[C@@H](O)[C@@H]1O[C@@H]1O[C@H](C(=O)O)[C@@H](O)[C@H](O)[C@H]1O (some centres undefined),-11,0.7,0.083,-1
O=C(NCc1ccco1)c1cncc(Br)c1,.,-0.2,.,-31
C[C@H](CO)N1C[C@H](C)[C@H](CN(C)Cc2ccc(Oc3ccccc3)cc2)Oc2ccc(NC(=O)CCC(F)(F)F)cc2CC1=O,-29,-1.7,0.15,-5
Cc1ccc(-c2noc(CCC(=O)Nc3cccc([N+](=O)[O-])c3)n2)cc1,.,-1.6,.,27
CCOC(=O)c1cnc2c(c(C3CC3)nn2C)c1N1CCOCC1,.,0.0,-0.046,0
CS(=O)(=O)CCC(C(=O)N1CCCCC1)N1C(=O)c2cc(Cl)c(Cl)cc2C1=O (centres undefined),.,1.8,.,3
C[C@H](CO)N1C[C@H](C)[C@@H](CN(C)Cc2ccc(C(F)(F)F)cc2)Oc2c(NS(=O)(=O)c3ccccc3)cccc2C1=O,-53,-2.0,-0.064,-7

# Reprinted at random: 5 entries already listed
SMILES,Hedgehog inh,PD-1 reverse act,YB-1 expr inh,MITF inhib
Cc1ccc(-c2noc(CCC(=O)Nc3cccc([N+](=O)[O-])c3)n2)cc1,.,-1.6,.,27
CS(=O)(=O)CCC(C(=O)N1CCCCC1)N1C(=O)c2cc(Cl)c(Cl)cc2C1=O (centres undefined),.,1.8,.,3
CC(C)NC(=O)N(C)C[C@@H]1Oc2ccc(NC(=O)Nc3ccc(C(F)(F)F)cc3)cc2CC(=O)N([C@H](C)CO)C[C@@H]1C,23,.,-0.3,-12
C[C@H](CO)N1C[C@H](C)[C@@H](CN(C)Cc2ccccc2)Oc2ccc(NC(=O)CCCN(C)C)cc2C1=O,-1,1.0,-0.079,2
CC1CC[C@]2(C(=O)O)CC[C@]3(C(=O)O)C(=CCC4[C@@]5(C)CC[C@H](OC6OC(C)C(O)C(OC7OC(CO)C(O)C(O)C7O)C6O)C(C)(C)C5CC[C@]43C)C2C1C (some centres undefined),9,2.0,-0.24,6

# Following part.
SMILES,Hedgehog inh,PD-1 reverse act,YB-1 expr inh,MITF inhib
COc1ccc(NC(=O)N(C)C[C@H]2Oc3c(NC(=O)Nc4ccc(F)cc4)cccc3C(=O)N([C@@H](C)CO)C[C@H]2C)cc1,-25,-0.6,0.15,7
Cc1ccc(S(=O)(=O)Nc2cccc3c2O[C@H](CN(C)Cc2ccccc2)[C@@H](C)CN([C@@H](C)CO)C3=O)cc1,-17,0.5,-0.14,-8
Cc1cc(Br)ccc1NC(=O)C(=O)NCCCN1CCOCC1,.,1.8,.,9
COC(=O)c1cc(=O)n2c(c1C(=O)c1ccc(Cl)cc1)SCC2,-1,-0.9,0.22,17
CCSC1=N/C(=C\c2ccc(C(=O)O)cc2)C(=O)S1,-11,0.5,0.33,-15
C[C@H]1CN([C@@H](C)CO)C(=O)c2cccc(NS(=O)(=O)c3cccs3)c2O[C@H]1CN(C)C(=O)Nc1ccccc1,27,.,-0.44,-1
COc1ccc(S(=O)(=O)Nc2ccc3c(c2)CC(=O)N([C@H](C)CO)C[C@@H](C)[C@H](CN(C)Cc2ccc4c(c2)OCO4)O3)cc1,-3,0.2,-0.34,4
CCC(Sc1nncn1C)C(=O)Nc1ccc(-c2nc3ccc(C)cc3s2)cc1 (centres undefined),.,-0.8,.,11
Cc1noc(C)c1NC(=O)Nc1cccc2c1O[C@@H](CN(C)Cc1ccccc1)[C@H](C)CN([C@H](C)CO)C2=O,-10,.,-0.5,7
COc1ccc(S(=O)(=O)c2ccc(OC)cc2)cc1,.,1.2,-0.23,9
Cn1c(=O)c2c(nc(NCc3cccnc3)n2Cc2ccc(Cl)cc2Cl)n(C)c1=O,.,-2.3,.,-26
NC(N)=NC(N)=NCCc1ccccc1,-21,-1.8,0.28,-6
O=C(Nc1ccc(I)cc1C(=O)NCc1cccnc1)c1ccc(Cl)cc1Cl,.,0.1,.,13
C[C@@H]1CCCCO[C@H](CN(C)CC2CCCCC2)[C@@H](C)CN([C@H](C)CO)C(=O)c2cc(NS(=O)(=O)c3ccccc3)ccc2O1,54,-5.2,-0.61,-11
Cc1ccc(Nc2nc(Nc3ccc(C)cc3)nc(Sc3nnc(C)s3)n2)cc1,.,-3.4,.,20
CC(C)NC(=O)Nc1cccc2c1O[C@H](CN(C)S(=O)(=O)c1cccs1)[C@H](C)CN([C@H](C)CO)C2=O,4,0.7,-0.56,1
C[C@H]1CN([C@@H](C)CO)C(=O)c2cc(NC(=O)c3ccncc3)ccc2O[C@@H]1CN(C)C,-18,0.9,-0.39,-1
Cc1cc(C)c(C#N)c(SCC(=O)N2CCCCC2)n1,15,-0.4,-0.38,-5
C[C@H]1CN([C@@H](C)CO)C(=O)c2cccc(NC(=O)c3ccncc3)c2O[C@@H]1CN(C)S(=O)(=O)c1ccccc1,-115,1.9,-0.13,-3
COc1ccccc1-c1cc(C(F)F)n2ncc(C(=O)NCc3cccnc3)c2n1,.,-6.1,.,25
COc1ccc(S(=O)(=O)N(C)C[C@@H]2Oc3ccc(NC(=O)Cn4cnnn4)cc3CC(=O)N([C@H](C)CO)C[C@@H]2C)cc1,6,.,.,-7
C[C@@H]1CN([C@H](C)CO)C(=O)c2cc(NS(=O)(=O)c3ccc(F)cc3)ccc2O[C@@H]1CN(C)C(=O)Nc1cccc2ccccc12,-7,-0.9,-0.15,0
C[C@H]1CN([C@@H](C)CO)C(=O)c2cc(NC(=O)Nc3ccc(C(F)(F)F)cc3)ccc2O[C@@H]1CN(C)S(=O)(=O)c1cccs1,.,.,0.15,67
CNC[C@@H]1Oc2ccc(NS(=O)(=O)c3ccccc3)cc2CC(=O)N([C@@H](C)CO)C[C@@H]1C,-9,1.4,0.25,-8
Cc1noc(C)c1NC(=O)Nc1ccc2c(c1)CC(=O)N([C@@H](C)CO)C[C@H](C)[C@H](CN(C)S(=O)(=O)c1ccc(F)cc1)O2,.,0.5,0.044,3
C[C@@H]1CCCCO[C@H](CN(C)S(C)(=O)=O)[C@@H](C)CN([C@H](C)CO)C(=O)c2cc(NC(=O)NC3CCCCC3)ccc2O1,-15,.,-0.3,1
CC(C)NC(=O)Nc1ccc2c(c1)C(=O)N([C@@H](C)CO)C[C@H](C)[C@@H](CN(C)Cc1ccc(C(F)(F)F)cc1)O2,26,2.2,0.13,-2
COc1ccc(NC(C)=O)cc1C,.,1.7,-0.24,3
C[C@H]1CN([C@@H](C)CO)C(=O)c2cccc(NC(=O)Nc3ccc(F)cc3)c2O[C@@H]1CN(C)Cc1ccc(C(=O)Nc2ccccc2N)cc1,.,-0.8,-0.34,-6
C[C@@H]1CN([C@H](C)CO)C(=O)Cc2cc(NC(=O)Nc3ccc(C(F)(F)F)cc3)ccc2O[C@H]1CN(C)C(=O)Nc1cccc2ccccc12,.,-0.2,-14,2
C[C@@H]1CN([C@@H](C)CO)C(=O)Cc2cc(NC(=O)NC3CCCCC3)ccc2O[C@@H]1CN(C)Cc1ccccc1,-6,0.3,0.27,3
C[C@@H]1CCCCO[C@@H](CN(C)C(=O)Nc2ccc(F)cc2)[C@@H](C)CN([C@H](C)CO)C(=O)c2cc(NC(=O)Nc3ccc4c(c3)OCO4)ccc2O1,.,-0.2,0.17,-3
COc1cccc(C(=O)c2oc3ccccc3c2NC(=O)CCc2ccccc2)c1,.,-1.1,.,-32
C=C1C(=O)O[C@@H]2C=C(C)[C@@H]3CC[C@@](C)(O)[C@@H]3C[C@H]12,10,-0.1,0.073,-1
C=CCn1c(SCC(=O)c2c(C)[nH]c3ccccc23)nc2sc3c(c2c1=O)CCC3,.,1.1,.,0
Cc1cc(NS(=O)(=O)c2ccc(NC(=O)NC(C)(C(F)(F)F)C(F)(F)F)cc2)no1,.,1.1,.,-5
CN(C)c1nc(OCC(=O)NC(C)(C)C)nc(N(C)C)n1,.,2.9,.,-17
C[C@@H]1CN([C@H](C)CO)C(=O)Cc2cc(NC(=O)Cn3cnnn3)ccc2O[C@@H]1CN(C)Cc1ccc(-c2ccccc2)cc1,-19,.,-0.39,11
O=C(COc1ccc2ccccc2c1Br)NCc1ccccn1,.,-0.9,.,-161
CNC[C@@H]1Oc2ccc(NS(=O)(=O)c3cn(C)cn3)cc2C(=O)N([C@@H](C)CO)C[C@H]1C,-20,0.8,0.0034,-1

# Compound profiles, as listed above. Order of screens: Hedgehog inh, PD-1 reverse act, YB-1 expr inh, MITF inhib
# CNC[C@@H]1Oc2ccc(NS(=O)(=O)c3cn(C)cn3)cc2C(=O)N([C@@H](C)CO)C[C@H]1C is listed as -20, 0.8, 0.0034, -1
# C[C@@H]1CN([C@H](C)CO)C(=O)Cc2cc(NC(=O)Cn3cnnn3)ccc2O[C@@H]1CN(C)Cc1ccc(-c2ccccc2)cc1 is listed as -19, ., -0.39, 11

# Going on with the list.
SMILES,Hedgehog inh,PD-1 reverse act,YB-1 expr inh,MITF inhib
O=C(Cn1cnc2scc(-c3cccc([N+](=O)[O-])c3)c2c1=O)Nc1cccc(C(F)(F)F)c1,.,-0.3,.,48
CCN(CC)CCSc1nnc2c3cc(C)ccc3n(C)c2n1,.,0.0,.,4
CCOC(=O)CNC(=O)c1cnn2cccnc12,.,1.6,.,-51
C[C@@H]1CN([C@H](C)CO)C(=O)Cc2cc(NC(=O)Cc3cn(C)c4ccccc34)ccc2O[C@@H]1CN(C)C(=O)Nc1ccc(F)cc1,-18,-1.9,-0.25,-1
Cn1c(CN2CCCC2)nc2cc(NC(=O)COc3ccc(Cl)cc3)ccc21,.,1.0,.,5
COc1ccc(C2C(C#N)=C(N)Oc3cc(C)n(CCc4ccc(OC)c(OC)c4)c(=O)c32)cc1 (centres undefined),10,-0.6,-0.11,2
C[C@@H]1CN([C@H](C)CO)C(=O)c2cc(NC(=O)Nc3ccc(F)cc3)ccc2O[C@H]1CN(C)S(C)(=O)=O,-23,0.5,-0.16,-6
CC(C)n1c(-c2ccccc2)nc2ccccc21,-3,0.0,-0.29,5
C[C@H]1CN([C@@H](C)CO)C(=O)c2cc(NC(=O)C3CCCCC3)ccc2O[C@@H]1CN(C)C(=O)Nc1ccc(C(F)(F)F)cc1,.,.,-0.2,3
Cc1cccc(NC(=S)N2CCCCC2)c1,22,1.0,0.5,-14
NC(=O)c1c(NC(=O)Cn2c(=O)oc3ccccc32)sc2c1CCCC2,.,-0.5,.,-6
COc1cc(C(=O)Nc2sc3c(c2C(=O)NCc2ccco2)CCCC3)cc(OC)c1OC,.,2.4,.,-4
O=C(Nc1sc2c(c1C(=O)NCc1ccco1)CCCC2)c1ccc(Cl)cc1Cl,.,-0.4,.,33

# Screens deposited in PubChem by Broad Institute.

# The list is partial (hit frequency here may not be typical).
